# Screening results (PubChem BioAssay)
# PrP UTR inh – inhibition of PrP 5' UTR reporter expression; inhibition, % (test concentration not listed); AID 488862, 2010; cell-based PrP 5' UTR mRNA reporter, plate reader; 340,000 tested, 0.35% active;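 active = every replicate at 50% or more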;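 also: 0 = median of the neutral control wells; tested in H4 reporter cells; numbers are from one replicate; inactives centre near -14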
# Mtb hypoxia inh – PubChem AID 1159583; M. tuberculosis hypoxia-regulated fluorescent reporter, fluorescence; fluorescence inhibition, % (concentration not given with the values); 300,000 tested, 0.1% active;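 active = 35 to 45% if threefold the growth effect, above 45% if 1.5-fold the growth effect; inactive = the rest, general growth blockers included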;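 also: wells of about 50 µL received 100 nL stock; 0% = vehicle wells and 100% = reference inhibitor wells; whole bacteria with a GFP reporter of the hypoxia response; strong numbers were not always called active; many hits fall short of the cut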
# Sa RN4220 lethal – growth inhibition of S. aureus RN4220, primary screen, OD600; 16 h; inhibition, % (no concentration beside the values); 330,000 tested, 0.33% active; AID 1259311, 2017;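 active = z-score of -3 or lower and OD600 up to 0.18 on both plates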;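 also: plate controls were untreated cells for no effect and reference antibiotic for full effect; stock transfer was 100 nL into about 80 µL; one replicate is shown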
# Sa ugtP lethal – growth inhibition of ugtP-null S. aureus, primary screen, RN4220 ugtP deletion, OD600. 330,000 tested, 0.54% active. 16 h; some inactives read as strong as hits. AID 1259309, 2017. growth inhibition, % (no concentration beside the values);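 active = z-score under -3 and OD600 up to 0.15 on both plates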;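 also: plate controls were untreated wells for no effect and antibiotic for full effect; wells of about 80 µL received 100 nL stock; the first replicate is given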
# Autofluor counter – flagged as autofluorescent in microsphere protease counterscreen. compound autofluorescence counterscreen, microsphere flow cytometry; active compounds read high. fluorescence intensity (concentration not given with the values). 360,000 tested, 3.1% active;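 active = at least 3 SD above the mean of all compounds, about 16000 in these data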;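 also: 100 nL of 1 mM stock went into each well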
# BJeLR lethal – MLPCN primary cell-based screen for lethality selective to Ras in HRASV12 cells. BJeLR (HRASV12) viability, CellTiter-Glo ATP luminescence, 48 h; reference of the scale not given here. inhibition, % (test concentration not listed). 300,000 tested, 0.17% active. AID 1554, 2009;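 active = replicate mean above 50%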;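 also: 50 nL library stock added to about 25 µL; numbers are from one replicate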
# Mtb hypoxia inh growth – further read-out of Mtb hypoxia inh, marked with its call; growth inhibition, %; measured here: M. tuberculosis growth (absorbance);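 0% = vehicle and 100% = reference antibiotic; read after six days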
# Active calls of the source: *; · = not tested or not shown. The order is random; any-hit rate near 4%.
SMILES,PrP UTR inh,Mtb hypoxia inh,Mtb hypoxia inh growth,Sa RN4220 lethal,Sa ugtP lethal,Autofluor counter,BJeLR lethal
COC(=O)c1ccc2c(=O)n(CCCCCC(=O)O)c(=O)[nH]c2c1,-15,1,7,1.7,2,2689,-6
O=C(COC(=O)c1cc(=O)c2ccccc2o1)Nc1ccc2ccccc2c1,-37,·,·,6.6,5,2098,22
O=C(CSc1nc(-c2ccccc2)nc2ccc(F)cc12)Nc1cccc(C(=O)O)c1,-20,2,0,9.0,7,4700,-3
CCC(=O)Nc1ccc(C(=O)N/N=C/c2cccnc2)cc1,4,·,·,·,·,10161,14
Cc1ccc(Sc2c([N+](=O)[O-])c(C)nn2C)cc1,-19,12,3,2.4,8,5495,-4
O=C(COC(=O)CCC1CCCC1)Nc1ccc(F)cc1Cl,-9,3,2,5.5,12,2934,·
O=C1COc2ccc(C(=O)COC(=O)Cc3c(F)cccc3Cl)cc2N1,-24,-1,-7,2.8,13,4469,·
Cc1ccccc1NS(=O)(=O)c1ccc(C)c(NS(C)(=O)=O)c1C,-12,1,2,5.1,1,4671,-5
CCOC(=O)C1=C(Cc2ccc(Cl)cc2)C(=O)c2ccccc2C1=O,-16,8,4,27,59,23250*,4
O=C(Cc1c[nH]c2ccccc12)NCc1cccs1,-20,·,·,5.5,-2,2178,-3
O=C(c1ccco1)N1CCN(S(=O)(=O)c2ccc3c(c2)OCCO3)CC1,-16,10,7,6.0,-4,2511,-4
O=[N+]([O-])c1ccc(/C=N/Nc2ncc(Br)cn2)cc1,-45,·,·,·,·,3713,1
C=CCSC1=C(C#N)C(c2cc(Br)c(O)c(OC)c2)CC(=O)N1 (configuration not stated),-24,14,3,10,-1,10552,0
CCOc1cc(/C=N/N=C/c2ccc(O)c(OCC)c2)ccc1O,-21,·,·,·,·,3855,-12
O=C(NCCN1Cc2ccccc2C1=O)c1cccs1,-15,·,·,-0.2,-9,2075,5
COc1ccc(-n2nnnc2SCC(=O)Nc2ccccc2N2CCOCC2)cc1OC,-24,-15,17,0.9,4,2393,-3
Cc1cc(C)c[n+](CC(=O)c2c(C)cc(C)c([N+](=O)[O-])c2C)c1,-20,-7,-34,-0.2,6,3519,23
Cc1cc(C)nc(N2CCC(C(=O)NCc3ccccc3F)CC2)n1,-13,6,11,1.6,-9,4189,-6
Cc1ccc(S(=O)(=O)N2[C@@H](c3ccc(C(C)(C)C)cc3)C(C(=O)O)=CC[C@H]2c2ccc(C(C)C)cc2)cc1,10,-1,2,97*,88*,3077,·
COc1ccc(-c2csc(Nc3ccc(O)cc3)n2)cc1,-120,10,8,-1.1,3,3460,7

# Arranged by length of the SMILES (low to high): some entries from above.
SMILES,PrP UTR inh,Mtb hypoxia inh,Mtb hypoxia inh growth,Sa RN4220 lethal,Sa ugtP lethal,Autofluor counter,BJeLR lethal
O=C(COC(=O)CCC1CCCC1)Nc1ccc(F)cc1Cl,-9,3,2,5.5,12,2934,·
Cc1ccc(Sc2c([N+](=O)[O-])c(C)nn2C)cc1,-19,12,3,2.4,8,5495,-4
CCOc1cc(/C=N/N=C/c2ccc(O)c(OCC)c2)ccc1O,-21,·,·,·,·,3855,-12
Cc1cc(C)c[n+](CC(=O)c2c(C)cc(C)c([N+](=O)[O-])c2C)c1,-20,-7,-34,-0.2,6,3519,23

# Later entries:
SMILES,PrP UTR inh,Mtb hypoxia inh,Mtb hypoxia inh growth,Sa RN4220 lethal,Sa ugtP lethal,Autofluor counter,BJeLR lethal
COc1cc2cc(CCOC(=O)N3CCCCC3)oc(=O)c2cc1OC,-21,14,9,4.9,0,4021,·
CSc1nc2c(c(=O)[nH]c(=O)n2C)n1C/C=C(\C)Cl,4,5,4,4.5,15,16106,-11
O=C(Nc1cccc(-c2nc3ncccc3o2)c1)c1sc2ccccc2c1Cl,-28,-2,-5,30,35,18637*,11
Cc1cc(=O)oc(C)c1C(=O)NCCNC(=O)c1c(C)cc(=O)oc1C,-14,3,-4,2.0,7,2859,-4
CC1OC1c1ccc(-c2ccc(C3OC3C)cc2)cc1 (configuration not stated),-51,10,8,2.3,17,3908,·
Brc1cccc(OCCSc2ncccn2)c1,-48,9,0,12,9,4599,8
O=C(Nc1ccc(OCC(=O)N2CCOCC2)cc1)c1cccc(Cl)c1,-16,-11,-13,5.1,-5,6595,-6
Clc1ccc(-c2nnc(-c3ccc4ccccc4c3)o2)cc1,-17,4,9,4.0,-11,3638,·
CC1=C(C(=O)Nc2ccccn2)C(c2ccccc2)n2ncnc2N1 (configuration not stated),-12,16,5,-8.0,-5,2665,-12
COC(=O)CSc1ncnc2c1cnn2-c1ccc(C)cc1C,-38,·,·,·,·,3186,-3
CC1Cc2ccccc2N1C(=O)c1cc2cccnc2n(C)c1=O (configuration not stated),-8,-2,2,2.5,2,·,2
CC1(C)Cc2c(c(N3CCOCC3)nc3sc4c(NCc5ccccc5)nnnc4c23)CS1,-1,7,7,11,-5,23609*,-4
Cc1ccc(S(=O)(=O)N2CCCC(C(=O)NCCc3ccc(S(N)(=O)=O)cc3)C2)cc1 (configuration not stated),-8,-12,-3,0.1,1,5530,2
COCCn1c(SCC(=O)N2CCCc3ccccc32)nc2ccccc2c1=O,3,-2,4,-0.3,-4,8575,-3
Cc1cc(C)cc(NC(=O)NCC2CCN(Cc3cc(C)ccc3C)CC2)c1,-11,4,7,-3.3,0,3611,2
CC1CCCC(C)N1C(=O)COC(=O)c1cncc(Br)c1 (configuration not stated),-31,11,2,4.4,-2,3180,·
CCOc1ccc(C(CCC(=O)O)=NNC(=S)NCCc2ccccc2)cc1,·,4,1,-1.2,11,·,·
COCC(COS(N)(=O)=O)C(C)C (configuration not stated),-12,9,1,6.3,-3,4116,-7
COc1ccc(C(=O)Nc2nc3cc4c(cc3s2)OCCO4)c(OC)c1,3,1,5,1.2,-2,3379,-16
O=C(NN=Cc1ccco1)C1CC1(c1ccccc1)c1ccccc1 (configuration not stated),·,3,0,-3.9,-13,·,·

# 2 entries picked at random from those above:
SMILES,PrP UTR inh,Mtb hypoxia inh,Mtb hypoxia inh growth,Sa RN4220 lethal,Sa ugtP lethal,Autofluor counter,BJeLR lethal
Brc1cccc(OCCSc2ncccn2)c1,-48,9,0,12,9,4599,8
Cc1cc(C)c[n+](CC(=O)c2c(C)cc(C)c([N+](=O)[O-])c2C)c1,-20,-7,-34,-0.2,6,3519,23

# Carrying on:
SMILES,PrP UTR inh,Mtb hypoxia inh,Mtb hypoxia inh growth,Sa RN4220 lethal,Sa ugtP lethal,Autofluor counter,BJeLR lethal
COc1ccc([N+](=O)[O-])cc1CSc1ccccn1,-20,11,5,8.6,5,2410,1
CCOC(=O)c1cc2c(=O)[nH]c(C(Cl)(Cl)Cl)nc2o1,-49,-1,1,56,26,9923,5
CCc1ccc(CN2CCN(Cc3cc(Br)ccc3O)CC2)cc1,-29,0,1,2.9,6,2252,-6
CCOC(=O)c1nc(N)sc1C(=O)OCC,-21,·,·,-1.0,4,2191,8
CC1(C(=O)OCC(=O)NCCNC(=O)COC(=O)C2(C)CC2(Cl)Cl)CC1(Cl)Cl (configuration not stated),-14,11,6,6.3,18,6060,5
C=CCN1CC2CC3(COc4cc(C)cc(C)c4)C=CC2(O3)C1=O (configuration not stated),3,15,12,8.9,-6,3010,0
CC1CN(C(C)CO)C(=O)c2cc(NC(=O)CCC(F)(F)F)ccc2OC1CN(C)S(=O)(=O)c1ccc(Cl)cc1 (configuration not stated),·,-9,-5,5.8,4,·,·
S=C(c1nc2ccccc2[nH]1)N1CCOCC1,-12,2,6,4.7,-11,4730,-6
COc1cc(Cl)cc(/C=C/c2ccc3ccccc3n2)c1OC(C)=O,-75,·,·,·,·,2089,1
O=C(O)C1CCC(C(=O)O)SS1 (configuration not stated),-9,16,8,3.4,0,3527,·
CC(/C=C/c1ccc2c(c1)OCO2)=N\NC(=O)C(O)c1ccccc1 (configuration not stated),-7,·,·,·,·,3790,-13
CCc1c(N)nc(N)nc1Nc1ccc(C)c(C)c1,-14,16,8,5.6,-8,3594,·
Cc1cc(C)c2c(CC(=O)NCCc3ccccc3)coc2c1,-4,5,5,-3.1,-8,3954,1
CS(=O)(=O)N1CCc2cc(-c3csc(NC(=O)Cc4ccccc4)n3)ccc21,4,-5,-3,8.2,-14,9110,-8
CC(=O)Nc1cccc(NC(=O)CSc2ncc(C(=O)Nc3ccc(F)cc3)c(=O)n2C)c1,-20,10,3,1.7,4,4859,-2
CSc1nc(O)cc(=O)n1-c1ccc(F)cc1,-19,-2,0,2.0,4,4449,1
COC(=O)c1nn(C)c(=O)[nH]c1=O,7,8,2,3.1,10,2847,·
Cc1nnsc1Sc1ccccn1,-29,-8,-13,-0.4,2,2168,-4
CCSc1nnc(NC(=O)c2ccco2)s1,-5,·,·,-1.8,1,3755,2
O=C(Nc1cccc(C(F)(F)F)c1)N(Cc1ccc(Cl)cc1)CC(O)C(F)(F)F (configuration not stated),-8,·,·,-10,-39,2704,2
COc1ccccc1N1CCN(Cc2cc(OC)c3c(c2)OCO3)CC1,-9,21,10,0.1,2,3353,-1
CCNc1ncnc2c1cnn2C1CCCO1 (configuration not stated),-13,16,12,-0.2,1,3489,·
Cc1ccccc1NC(=O)NCCCN1CCCC1,-7,3,10,2.8,-11,22559*,3
CC1CC(C)CN(C(=O)C2CC(=O)N(c3ccc4c(c3)OCCO4)C2)C1 (configuration not stated),-1,-3,4,1.4,0,3423,·
Cn1c(C=O)c(C#Cc2ccccc2)c2ccccc21,-22,2,0,-3.4,100*,3620,·
CCN(CC)C(=O)CSc1nc(-c2ccccc2)ccc1C#N,-3,11,5,3.2,-1,4181,6
CCCC1=Nc2cc(C(=O)NCCCN3CCN(C)CC3)ccc2Sc2ccccc21,-4,5,8,2.3,-7,6500,12
COc1ccccc1NS(=O)(=O)c1cc(NC(=O)c2cc3ccccc3oc2=O)ccc1C,-18,11,10,6.4,-8,2576,-11
Cc1cc(C)n2cnnc2n1,·,1,9,1.6,-4,6399,3
Cc1noc(C)c1COC(=O)c1cc2c(C)nn(-c3ccc(F)cc3)c2s1,-7,-1,-4,-0.6,-2,2922,4
O=C(NC(=S)Nc1ccc(NC(=O)c2ccccc2)cc1)c1ccc(F)cc1,-17,·,·,0.8,80,6113,-14
COc1cc(C(=O)COC(=O)Cc2cnc3sccn23)cc(OC)c1OC,-5,4,-2,1.2,1,4266,6
Cc1ccc(NS(=O)(=O)c2cc(NC(=O)c3cc(=O)[nH]c(=O)[nH]3)ccc2Cl)c(C)c1,8,-7,14,2.6,6,4303,10
CC(C)N=C(N)N=C(N)Nc1ccc(Cl)cc1,16,-2,-2,2.9,-2,5960,·
CC(CCN1C(N(C)C)=NCC1C)c1ccccc1 (configuration not stated),·,12,13,7.0,-1,·,·
O=S1(=O)C=C(Oc2ccc(F)cc2)c2ccccc21,-17,3,12,5.9,-7,9520,19
COc1ccc(SCC(C)CN2CCC(C(C)(C)C)CCC2=O)cc1 (configuration not stated),·,11,7,11,6,·,·
O=C(NCc1ccc2c(c1)OCO2)c1cc(Cl)ccc1Cl,-8,-4,5,6.1,4,3528,5
O=C(NC(Cc1ccccc1)C(=O)O)c1ccc(C(F)(F)F)cc1 (configuration not stated),·,4,6,2.2,-8,·,·
CC(=O)N1CC(C)Sc2ccc(S(=O)(=O)NCc3ccccc3Cl)cc21 (configuration not stated),-14,5,5,13,2,5193,8
O=C(O)c1ccc(/C=N/N2CCN(C3c4ccccc4-c4ccccc43)CC2)cc1,14,·,·,·,·,4317,-6
COc1ccc(/C(C)=N/NC(=O)c2cc(-c3cccnc3)nc3ccccc23)cc1,-21,·,·,·,·,2138,-9
O=c1c2ccccc2nc(-c2ccoc2)n1CCc1ccccc1,-12,·,·,-2.5,-6,4218,-2
Cc1ccnn1CC(=O)N/N=C/c1cn[nH]c1-c1ccc(F)cc1,-7,·,·,·,·,5704,-11
COc1ccc2nc(NC3=NC(c4ccccc4)CC(=O)N3)nc(C)c2c1 (configuration not stated),-17,10,1,8.4,-2,2357,0
CN(C)c1ccc(C=NNC(=O)c2ccc3c(c2)OCO3)cc1,·,5,6,0.2,9,·,·
CCOC(=O)c1c(NC(=O)c2nn(CC)cc2Br)c(C#N)cn1-c1ccccc1,0,-1,-6,7.0,-1,10175,1
CN(NS(C)(=O)=O)c1ncc(C(F)(F)F)cc1Cl,-17,-2,5,3.1,8,2408,2
Cc1ccc(C(=O)CSc2nnc(-c3ccco3)n2C)cc1,-48,1,0,10,3,3924,-3
Cc1ccc(C2=NN(C(=O)COc3ncnc4ccccc34)C(c3ccco3)C2)cc1 (configuration not stated),7,-12,-5,2.5,6,4137,-23
